D2 ag: agonists of human D2 dopamine receptor (beta-arrestin) | P14416 | actives 0.084% (n = 360,000) | DiscoveRx PathHunter D2 beta-arrestin, luminescence, 90 min; 100% = 57 uM dopamine signal | activation, % (concentration not given with the values); in the data active = activation above about 40%; inconclusive = about 15% to 40%; inactive = below about 15%; further: compound concentration not given in the record; the text of the record calls up to 30% inactive
Target sequence (P14416 whole entry, looked up): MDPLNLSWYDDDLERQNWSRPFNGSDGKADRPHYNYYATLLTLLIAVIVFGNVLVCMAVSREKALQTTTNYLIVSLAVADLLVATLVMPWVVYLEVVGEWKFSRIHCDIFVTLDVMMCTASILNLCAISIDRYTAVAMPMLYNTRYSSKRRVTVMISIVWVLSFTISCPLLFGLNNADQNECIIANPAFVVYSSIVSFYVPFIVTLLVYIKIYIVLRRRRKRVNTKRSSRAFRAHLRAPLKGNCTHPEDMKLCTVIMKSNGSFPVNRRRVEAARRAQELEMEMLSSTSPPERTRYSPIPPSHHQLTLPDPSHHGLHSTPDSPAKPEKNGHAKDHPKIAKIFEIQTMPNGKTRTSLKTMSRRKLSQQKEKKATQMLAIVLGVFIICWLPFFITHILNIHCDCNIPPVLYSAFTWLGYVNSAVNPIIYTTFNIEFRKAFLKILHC
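DiscoveRx PathHunter D2 beta-arrestin cells (2,100/well) attached overnight, then compound-stimulated 90 min at 37 C in HBSS/10 mM HEPES/0.1% Tween-20 buffer; beta-galactosidase complementation read by luminescence after 1 h at ambient temperature. Dopamine 57 uM final (EC100) as control.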
CtBP-E1A blk: blocks the CtBP interaction with E1A; AlphaScreen GST-E1A/His-CtBP binding, 1536-well; active compounds read low; control for the full effect not named in the record; AID 651724; activity change, % (test concentration not listed); actives 0.49% (n = 340,000); in the data active means activity change below about -65%; inconclusive means about -30% to -65%; inactive means above about -30%; further: on the % scale 0 is the no-effect control and ±100 the full control effect
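Steps: dispense buffer (Tris pH 8.0, NaCl 300 mM, TCEP 1 mM, BSA, Tween 20); add 5X protein mix (GST-E1A, His-CtBP, 125 nM each); pin 23 nL compound; 2 h at 37 °C, dark; add 5X beads (50 ug/mL); 1 h; read.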
gsp ag: agonists of gsp mutant (McCune-Albright syndrome) | gsp mutant cells, cAMP HTRF, 30 min; control for the full effect not named in the record | Potency, µM (highest dose often 76.9 µM), for inactives: at the highest dose activation (cAMP increase), most hits filed as activators | actives 0.13% (n = 340,000) | AID 624287; active = well fitted activation curve with a large enough effect; inconclusive = small, poorly fitted or top-dose-only effect, or another doubt; inactive = no such curve, though single readings can be large or run the other way; cell line not stated here;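 further: phosphodiesterase inhibitor Ro 20-1724 added with compounds to block cAMP breakdown; potency means the concentration at half of the fitted maximal effect; nearly all actives have a fitted effect of over 60% in size; about a fifth of the inactives were tested at one dose only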
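Cells stably selected in G418 were plated at 2000/well, grown 16-24 hr, then given compounds in DMSO with the PDE inhibitor […] (300 uM solution added) for 30 min at 37C; cAMP was read by HTRF.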
Six1-Eya2 blk: inhibitors of human Six1/Eya2 interaction; AlphaScreen GST-Six1/His-Eya2 binding, biochemical; active compounds read low; control for the full effect not named in the record; activity change, % (test concentration not listed); actives 0.56% (n = 360,000); in the data active = activity change below about -65%; inconclusive = about -30% to -65%; inactive = above about -30%; further: on the % scale 0 is the no-effect control and ±100 the full control effect
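Homogeneous AlphaScreen proximity assay pairing GST-Six1 with His-tagged Eya2 (added as 5X mix: 250 nM and 500 nM) in 50 mM Tris pH 8.0, 300 mM NaCl, 1 mM TCEP. Glutathione donor and nickel acceptor beads; 1 h, 37 °C, dark.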
D2 potentiator: positive allosteric modulators of human D2 dopamine receptor | P14416 | DiscoveRx D2 beta-arrestin cells, luminescence, 90 min; 100% = 57 uM dopamine signal | potentiation, % (no concentration beside the values) | actives 0.23% (n = 360,000); active = potentiation of 50% or more; inconclusive = 30% to 50%; inactive = 30% or less;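 further: compound concentration not given in the record; tested on top of an EC20 dose of dopamine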
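D2 cells co-treated with compound plus 50 nM dopamine (EC20) for 90 min at 37 deg C to detect potentiation. Beta-arrestin recruitment was read as enzyme-fragment luminescence after 1 h at ambient temperature. Full response was set by 57 uM dopamine.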
gsp antagonist: antagonizes gsp, the McCune-Albright syndrome mutation | gsp-mutant cells, cAMP HTRF, 30 min; control for the full effect not named in the record | Potency, µM (top dose mostly 76.9 µM), without a hit: top-dose activity change, negative = inhibition, most hits filed as inhibitors | actives 0.4% (n = 340,000) | AID 624288; active = falling curve of any shape with a large fitted effect; inconclusive = falling curve, mostly with a smaller effect; inactive = flat or rising curve; cell line not stated here;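 further: intracellular cAMP measured with PDE inhibitor Ro 20-1724 present during compound exposure; potency means the concentration at half of the fitted maximal effect; on the % scale 0 is the no-effect control and ±100 the full control effect; nearly all actives have a fitted effect of over 65% in size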
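Cells, 2000/well, grown 16–24 h in DMEM 10% FBS with 0.5 mg/ml G418, then compounds plus […] (300 uM addition stock), 30 min at 37C. cAMP read by HTRF (cAMP-d2 and anti-cAMP antibody-K in lysis buffer) after 30 min RT.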
The depositor's hits bear a star; ? = inconclusive; . = no result given; & = joins results of further samples; [ ] = remark or other dose.

SMILES	D2 ag	CtBP-E1A blk	gsp ag	Six1-Eya2 blk	D2 potentiator	gsp antagonist
CC(N=C(NC#N)Nc1ccncc1)C(C)(C)C (configuration not stated)	-5.0&-3.6	-15&-2	.	5&-3	-10&-2	-8%&-5%
CCOC(=O)N1CCN(S(=O)(=O)N2CCCC(C(=O)NCCCN3CCCCC3CC)C2)CC1 (configuration not stated)	7.9	8	0%	3	0	20%
CCn1c(CNC(=O)COc2ccc(C(C)C)cc2)nnc1SCC(=O)Nc1ccc(F)cc1	3.8	15	12%	0	-2	-11%
Cc1ccc(N2C(=O)CC(Sc3nc4ccccc4o3)C2=O)cc1Cl (configuration not stated)	-0.4	3	?	1	-9	-12%
COc1cc2nc(Cl)nc(NCCO)c2cc1OC	0.4	?	20%	-22	-10	8%
CC(OC(=O)CCNS(=O)(=O)c1ccc(Cl)cc1)C(=O)N(C)Cc1ccccc1 (configuration not stated)	-3.0	8	-10%	-2	-5	.
Cc1ccc(C(=O)CSc2nc3ccccc3o2)cc1	-0.7	10	17%	34	-12	-4%
O=C(Nc1ccccc1)/C(=C/c1ccc(O)cc1)NC(=O)c1ccco1	3.9	10	9%	1	-1	0%
CCOC(=O)c1c(NC(NC(=O)C(C)C)C(Cl)(Cl)Cl)sc2c1CCC2 (configuration not stated)	-2.1	-2	-14%	-3	-3	-19%
CCOC(=O)c1c(C)[nH]c(C(=O)COC(=O)CNC(=O)C2CCCCC2)c1C	1.9	-3	?	6	-3	27%
Cc1ccc2cc(CN(CCCN(C)C)C(=O)NCc3ccccc3)c(=O)[nH]c2c1C	-1.9	4	16%	0	-11	7%
CN(CC(=O)Nc1ccc(F)c(Cl)c1)S(=O)(=O)c1cccc2nsnc12	-2.4	-7	-67%[inhibitor]	-5	-11	?
Cc1ccc2nc(N(CCCN(C)C)C(=O)CCc3ccccc3)sc2c1	0.0	-4	5%[15.4 µM]	2	-16	29%
CCN(CC)C(=O)Cn1cc(C(=O)C(=O)NCCCN2CCOCC2)c2ccccc21	-1.9	4	6%	-2	-1	0%
O=C(Nc1ccc(-c2cn3c(n2)SCC3)cc1)c1ccco1	-5.8	-19	1%[15.4 µM]	-6	-14	-9%
CN(C)c1c2ccccc2nc2c(F)c(F)c(F)c(F)c12	?	0	-22%	0	13	-25%
O=C(CN1CCOc2ccccc21)NC1CCCCCCC1	9.3	-2	-2%	-8	1	-19%
Cc1ccc(S(=O)(=O)N(C)CC(=O)OCC(=O)c2c(N)n(C)c(=O)n(C)c2=O)cc1	1.6	-26	8%[15.4 µM]	-6	-2	-15%
CCOc1ccc(-n2c(SCC(=O)Nc3ccccc3C)n[nH]c2=O)cc1	-2.2	3	21%	0	-5	5%
COc1ccccc1NC(=O)CCC(=O)c1ccc(-c2ccccc2)cc1	-0.8	12	10%	2	4	-15%

The last 2 compounds of the section before are carried over, then new ones follow:
SMILES	D2 ag	CtBP-E1A blk	gsp ag	Six1-Eya2 blk	D2 potentiator	gsp antagonist
CCOc1ccc(-n2c(SCC(=O)Nc3ccccc3C)n[nH]c2=O)cc1	-2.2	3	21%	0	-5	5%
COc1ccccc1NC(=O)CCC(=O)c1ccc(-c2ccccc2)cc1	-0.8	12	10%	2	4	-15%
CCn1cc(C(=O)O)c(=O)c2cnc(N3CCN(C(=S)NC(=O)c4ccc(Br)cc4)CC3)nc21	1.0	-1	31%	-2	-4	-9%
Cc1cc(NC(=O)c2ccc([N+](=O)[O-])cc2)no1	-2.6	-1	18%[15.4 µM]	-9	-1	4%
O=C(C=Cc1ccc2c(c1)OCO2)C=Cc1ccc2c(c1)OCO2	-0.9	4	-21%	-3	-3	.
CCOC(=O)C1=C(C)NC(=S)N(C(C)=O)C1c1ccc(Cl)cc1 (configuration not stated)	0.4	-16	1%	-9	-6	?
CC(=NNC(=O)c1cccc(S(=O)(=O)N2CCCC2)c1)c1ccccc1	-1.6	0	?	13	-20	1%
CCOC(=O)/C(C#N)=C\c1c(C)cc(C)c(COC(C)=O)c1C	-3.4	5	1%	6	10	11%
O=C(COc1ccc([N+](=O)[O-])cc1)NNC(=O)C1COc2ccccc2O1 (configuration not stated)	-1.8	5	-78%[inhibitor]	0	-12	.
COc1ccc(-n2c(=O)cc(N3CCN(Cc4ccccc4)CC3)[nH]c2=O)cc1	-6.1	-3	-7%	-9	-5	-3%
COc1ccc(CCC(=O)OCC(=O)Nc2sccc2C(N)=O)cc1OC	-0.5	1	-46%[inhibitor]	-4	0	-6%
CCN(c1ccc(OC)cc1)S(=O)(=O)c1nnc(NC(=O)COc2ccc(F)cc2)s1	1.4	-7	-24%	-6	6	-24%
Clc1cccc(-c2ccc(C=Nc3ccc(N4CCOCC4)cc3)o2)c1Cl	?	.	16%	?	1	-20%
Cc1ccccc1CC1(CO)CCCN(C(=O)c2cccc(Cl)c2)C1 (configuration not stated)	-7.3	.	4%	-4	-5	-1%
COc1ccc(CC(=O)OCC(=O)Nc2cccc(C(C)=O)c2)cc1OC	-1.0	3	11%[15.4 µM]	1	-6	1%
COCCNC(=O)C1(C)CCN(C(=O)/C=C/c2ccccc2)C1 (configuration not stated)	-2.4	3	.	2	-12	.
Cc1ccc(CNC(=O)c2cc3cc(Br)ccc3oc2=N)cc1	1.5	11	-2%	2	-30	-3%
Cc1c(C(=O)Nc2ccc(F)cc2)c2ccccn2c1CCc1ccncc1	-0.4	-26	2%[15.4 µM]	1	-6	11µM*
c1csc(-c2nc(-c3ccc(-c4ccon4)s3)no2)c1	-2.2	2	-2%	1	-2	-1%
COc1ccc(OC)c(/C=C2\SC(=S)N(C(C(=O)O)c3ccccc3)C2=O)c1 (configuration not stated)	-5.3	.	12%	-7	-11	-15%
COCCNC(=O)C(c1ccc(C)cc1)N(CCOC)C(=O)CCC(=O)Nc1ccccn1 (configuration not stated)	-1.9	17	-6%[15.4 µM]	9	-1	7%
N#CC1=C(N)Oc2n[nH]c(-c3ccccc3)c2C1c1cccnc1 (configuration not stated)	-2.1	1	-34%[inhibitor]	1	16	-8%

gsp antagonist, hit marks shown above.
SMILES	D2 ag	CtBP-E1A blk	gsp ag	Six1-Eya2 blk	D2 potentiator	gsp antagonist
Cc1c(C(=O)Nc2ccc(F)cc2)c2ccccn2c1CCc1ccncc1	-0.4	-26	2%[15.4 µM]	1	-6	11µM*

(further entries)
SMILES	D2 ag	CtBP-E1A blk	gsp ag	Six1-Eya2 blk	D2 potentiator	gsp antagonist
O=C(Nc1nnc(-c2ccc3c(c2)CCCC3)o1)c1c(F)cccc1F	-1.3	-2	4%[15.4 µM]	0	-4	?
Cc1ccc(/C=C/C(=O)NC2CCS(=O)(=O)C2)cc1 (configuration not stated)	9.1	-4	-31%[inhibitor]	9	-8	11%
CC(=O)N1CCN(CCN(CC2C(C)C=C(C)CC2C)C(C)=O)CC1 (configuration not stated)	-0.2	-5	3%	11	-5	0%
O=C(NC(c1ccc(F)cc1)c1ccc2ccccc2n1)C1CCN(CCOc2ccc(Cl)cc2)CC1 (configuration not stated)	-4.0	-16	.	-29	-11	.
CCSC1(SCC)N=C(N)C2(C#N)C(c3ccccc3)NC(C)=CC12C#N (configuration not stated)	1.9	-2	-25%	9	-9	-11%
Clc1ccc(COn2c(-c3ccccc3)nc3ccccc32)cc1	-2.1	10	-8%	9	-1	-33%
O=C(CN1CCOCC1)NNC(=S)Nc1ccc(Cl)cc1	-5.4	-25	-8%[15.4 µM]	-25	-12	4%
Cc1nnsc1-c1c(C(=O)N2CCOCC2)c(C)nn1-c1ccc(Cl)cc1	-9.8	6	5%[15.4 µM]	-1	-5	8%
COc1ccc(CC(=O)NCc2csc(-c3cccs3)n2)cc1OC	-1.2	1	18%[15.4 µM]	-3	-10	-2%
O=C1C=C(Nc2ccc(F)cc2)c2ccccc2C1=O	9.2	-3	-14%	-19	50*	-2%
CCOC(=O)c1ccc(COC(=O)CCc2nc3ccccc3[nH]c2=O)o1	-0.9	1	-47%[inhibitor]	6	-7	-15%
O=c1[nH]c(=O)n2c(c1-c1ccccc1)OC(CBr)C2 (configuration not stated)	-4.9	1	-47%[inhibitor]	-1	-6	.
O=C(c1c(F)cccc1F)N1CCC(O)(c2cccnc2)CC1	0.8	-1	-10%	0	-1	11%
COc1ccc2c(=O)cc(CO)oc2c1	0.7	0	.	20	7	9%
Cc1nnc(C)n1N	0.5	5	?	-2	-2	5%
C[C@@H](NC(=O)c1coc(=O)c(Br)c1)c1ccccc1	-3.0	-8	?	-5	-37	-3%
Cc1n[nH]c(=S)c2nn(-c3ccccc3F)c(C)c12	-4.2	-10	?	5	-26	-3%
C/C=N/NC(=O)CCCC(=O)N/N=C/C	-4.6	6	?	5	2	7%
CC(C)C(=O)Nc1ncc(Cc2ccccc2Cl)s1	0.0	-1	-2%[15.4 µM]	0	-21	4%
Cc1nc2c(cc1C(=O)N/N=C/c1ccc([N+](=O)[O-])cc1)c(=O)n(C)c(=O)n2C	-1.6	-2	3%	-6	-7	9%
Cc1cc(SCC(=O)c2ccc(Cl)cc2)nc(=O)[nH]1	-5.1	-19	?	-3	-14	3%
CN(C)CCCNC(NC(=O)c1cccs1)C(Cl)(Cl)Cl (configuration not stated)	-4.1	24	-3%	18	-11	9%
CCOC(=O)c1c(C)[nH]c(C(=O)COC(=O)/C=C/c2ccc(OCC#N)c(OC)c2)c1C	-1.4	8	13%	3	-6	7%
C=Cc1ccc(Cn2c(C)c(C(=O)NCc3ccc4c(c3)OCO4)sc2=O)cc1	8.8	-11	.	-16	-4	.
Cc1nc2c(-c3ccccc3)c[nH]n2c(=O)c1Cc1ccccc1	-0.8	-4	-6%	-2	-12	?
CCC[C@@H]1CCCO[C@@](C(=O)NCCN2CCOCC2)(C(F)(F)F)C1	0.2	3	.	3	1	9%
CCSC1=N/C(=C\c2ccc(-c3ccccc3[N+](=O)[O-])o2)C(=O)S1	-0.2	0	-1%	-15	5	-3%
C#Cc1cccc(NC(=O)CSc2nnc(-c3ccc(C(F)(F)F)cn3)o2)c1	4.0	.	-2%	-16	3	0%
CN1CCC(=O)N(CCSc2ccccc2)CC1	-0.3	7	-4%	4	-17	11%
O=C(O)c1nnn(-c2ccc([N+](=O)[O-])cc2)c1-c1ccccc1	1.3	.	15%	-4	-17	-5%
Cc1occc1-c1nnc(SCC(=O)c2ccc3c(c2)OCCO3)n1CC1CCCO1 (configuration not stated)	-0.7	-4	31%	14	-8	4%
CCOC(=O)C(=O)Nc1nnc(COc2ccccc2)s1	-2.6	4	-26%	0	-6	-14%
COc1ccc2c(c1OC)C(=O)N1C2SC[C@H]1C(=O)NC1CC1 (some centres not stated)	-5.0	1	.	7	-35	7%
O=C1CC(c2ccc(O)c(O)c2)Oc2cc(O)cc(O)c21 (configuration not stated)	7.9	-21	.	-30	-5	2%

From PubChem
